Screens deposited in PubChem by Johns Hopkins Ion Channel Center.
KCNQ2 pot: potentiators of rat KCNQ2 potassium channel; CHO-K1 KCNQ2, FluxOR thallium flux fluorescence; active compounds read high; B-score at 10 µM; 0.54% of 310,000 active; AID 2239, 2010;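 active = fluorescence ratio B-score at least 3 SD of library B-scores, with initial fluorescence B-score within 3 SD, cut at about 5.3 in these data; same plate scores as AID 2156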;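 note: B-score of peak minus minimum over baseline fluorescence ratio after K+ and Tl+ stimulus; positive B-score means potentiation of KCNQ2 with more thallium influx and brighter signal; only the inactives scoring about 0 or higher are listed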
Target sequence (O88943 whole entry, looked up): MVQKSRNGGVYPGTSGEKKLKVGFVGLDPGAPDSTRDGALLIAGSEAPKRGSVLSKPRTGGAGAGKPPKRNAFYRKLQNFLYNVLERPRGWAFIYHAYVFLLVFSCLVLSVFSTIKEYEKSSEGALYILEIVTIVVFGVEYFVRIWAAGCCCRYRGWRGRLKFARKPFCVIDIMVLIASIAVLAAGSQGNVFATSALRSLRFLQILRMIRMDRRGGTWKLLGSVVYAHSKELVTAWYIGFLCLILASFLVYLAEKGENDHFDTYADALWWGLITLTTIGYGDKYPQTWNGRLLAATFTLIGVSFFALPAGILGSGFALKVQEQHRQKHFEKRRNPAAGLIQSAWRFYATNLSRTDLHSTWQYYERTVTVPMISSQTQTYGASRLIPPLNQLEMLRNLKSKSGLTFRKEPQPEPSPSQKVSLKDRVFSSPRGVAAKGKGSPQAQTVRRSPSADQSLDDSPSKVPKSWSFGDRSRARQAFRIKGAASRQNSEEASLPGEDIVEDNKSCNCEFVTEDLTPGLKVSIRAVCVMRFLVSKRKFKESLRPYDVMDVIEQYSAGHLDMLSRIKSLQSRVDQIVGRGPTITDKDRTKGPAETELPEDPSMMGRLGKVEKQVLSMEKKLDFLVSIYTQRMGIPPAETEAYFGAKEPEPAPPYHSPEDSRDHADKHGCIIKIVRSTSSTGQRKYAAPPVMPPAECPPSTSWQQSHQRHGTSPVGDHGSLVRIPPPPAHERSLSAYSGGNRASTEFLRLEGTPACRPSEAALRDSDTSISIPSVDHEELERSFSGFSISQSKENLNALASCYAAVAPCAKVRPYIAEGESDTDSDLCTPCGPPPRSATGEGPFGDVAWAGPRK
KCNQ2 pot baseline: also measured in KCNQ2 pot; calls as there; B-score; compound at 10 µM; measured here: initial fluorescence intensity artifact check;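 brightness before thallium and not channel activity; 0 = typical well and far values either way flag optical interference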
* hit, by the source's call; / = no result given. Only part of the results is shown; count on the stated rates, not on these rows.

Below each compound – KCNQ2 pot | KCNQ2 pot baseline
- COc1ccc(Cl)cc1NC(=O)C/C(C)=N/NC(=O)Cc1ccccc1
    0.87 | -3.51
- COc1ccc(C2/C(=C(/O)c3ccccc3)C(=O)C(=O)N2c2ncccn2)cc1OC (stereo not given)
    0.01 | 0.31
- CCOC(=O)COc1cccc(C2NC(=O)c3ccccc3O2)c1 (stereo not given)
    0.84 | -1.28
- COc1cc2c(cc1OC)C(c1cccs1)NCC2 (stereo not given)
    1.08 | 0.19
- COc1ccc(-c2nc(-c3ccccc3)[nH]c(=O)c2C#N)cc1
    0.8 | 0
- CC(C)(C)c1csc(NNC(=O)c2ccc(Br)cc2)n1
    1.06 | 1.2
- Cc1cc(C)n(C(=O)c2ccc(S(=O)(=O)N3CCOCC3)cc2)n1
    1.33 | 0.42
- CCc1ccc(OCC(=O)N2CCN(c3ccccn3)CC2)c(Br)c1
    0.22 | -0.44
- O=C(NNC(=O)c1ccccc1-n1cccc1)c1cccc(Cl)c1
    0.48 | -0.09
- O=C1CC(c2ccco2)CC(O)=C1C=NCCN1CCN(C(=S)Nc2ccccc2)CC1 (stereo not given)
    0.64 | 0.72
- CCC(Cc1ccccc1)NS(=O)(=O)c1c(C)nc2sccn2c1=O (stereo not given)
    1.47 | -1.43
- Cc1nc(-c2cccc(S(=O)(=O)N3CCCC(C)C3)c2)cs1 (stereo not given)
    2.08 | -1.15
- CC1(C)CC(=O)C=C(Nc2cc(-c3ccccc3)[nH]n2)C1
    0.79 | -0.41
- Cc1[nH]c2ccccc2c1C(=O)/C=C/c1ccccc1Cl
    0.49 | -0.5
- CCC(=O)c1ccc(OCC(=O)N2CCN(c3ncccn3)CC2)cc1
    1.04 | 0.31
- CC(C#N)(NC(=O)COC(=O)c1ccccc1NCCO)C1CC1 (stereo not given)
    0.18 | -0.69
- Cc1ccc(NC(=O)Cn2nc(C)c(S(=O)(=O)N(C)C)c2C)cc1
    2.2 | 0.17
- O=C(CC1Sc2ccccc2NC1=O)Nc1cccc(C(=O)O)c1 (stereo not given)
    1.04 | -0.25
- CCN(CCCNC(=O)CSc1cc(=O)n(C)c2cc(Cl)ccc12)Cc1ccccc1
    0.35 | 0.01
- CC1(C)CC2CC(C)(CN2C(=O)CCCN2C(=O)c3ccccc3C2=O)C1 (stereo not given)
    0.77 | -0.63

Profiles as entered above. Values in the order: KCNQ2 pot	KCNQ2 pot baseline
`Cc1nc(-c2cccc(S(=O)(=O)N3CCCC(C)C3)c2)cs1` (stereo not given) reads 2.08	-1.15
`COc1ccc(Cl)cc1NC(=O)C/C(C)=N/NC(=O)Cc1ccccc1` reads 0.87	-3.51
`CC1(C)CC(=O)C=C(Nc2cc(-c3ccccc3)[nH]n2)C1` reads 0.79	-0.41
`Cc1ccc(NC(=O)Cn2nc(C)c(S(=O)(=O)N(C)C)c2C)cc1` reads 2.2	0.17

Next part.
Below each compound – KCNQ2 pot | KCNQ2 pot baseline
- O=C(Nc1ccc(SC(F)F)cc1)C12CCC(CC1)C2
    0.18 | -0.57
- Cc1nc(NCCc2ccc(S(N)(=O)=O)cc2)c2c(C)c(C)sc2n1
    0.53 | 3.97
- Cc1cc(C)cc(OCc2nnc(SCC(=O)Nc3ccccc3)o2)c1
    0.17 | -0.94
- CCCCC(=O)c1ccc(O)cc1O
    1.1 | -2.74
- O=C1CCCC2=C1C(c1ccc(O)c(O)c1)c1c(ccc3ncccc13)N2 (stereo not given)
    0.32 | 1.03
- Clc1ccccc1Sc1cnc2ccccc2n1
    0.13 | 1.14
- CN(CCc1ccccn1)C1CCCN(S(=O)(=O)c2ccccc2Cl)C1 (stereo not given)
    0.08 | -0.03
- COc1ccc(-n2ncc3c(NCc4cccs4)ncnc32)cc1
    0.33 | 2.31
- O=C(Cc1cc(=O)[nH]c(=O)[nH]1)N1CCC(Cc2ccccc2)CC1
    0.07 | 0.11
- CCCCNC(=O)Oc1cc(CCl)on1
    0.51 | 0.28
- O=[N+]([O-])c1ccc2oc(-c3cccc(O)c3)nc2c1
    0.29 | -0.21
- Cc1cc(Nc2n[nH]c(N)c2C#N)ccc1F
    1.8 | -0.57
- CSc1cccc(NC(=O)CSc2nnc(C)s2)c1
    0.46 | -0.76
- CCCn1c(=O)c2sccc2n2c(CCCC(=O)NCc3ccco3)nnc12
    1.19 | -0.15
- O=C(CC1Nc2c3ccccc3nc(=S)n2C1=O)NC1CCCCC1 (stereo not given)
    1.35 | 0.58
- COc1cc2c3nnc(-c4ccc(F)cc4)c-3cn(Cc3ccc(C)cc3)c2cc1OC
    1.53 | -0.36
- Nc1nc(Nc2cccc3ccccc23)nc(C2CCCC2=O)n1 (stereo not given)
    0.15 | -0.03
- COc1nc(Nc2cccc(C(F)(F)F)c2)nc(OC)n1
    1.22 | -0.06
- CCN(CC(=O)NCc1cccs1)C(=O)C(c1ccccc1)c1ccccc1
    1.05 | 0.94
- COc1cc([N+](=O)[O-])ccc1NC(=O)N1CCCCCC1
    1.98 | -1.65
- O=C(NCc1cccs1)C1CCCN1C(=O)Nc1ccc(Cl)cc1 (stereo not given)
    0.12 | 0
- Cc1ccc(Cl)cc1Nc1nc(-c2cccnc2)cs1
    0.28 | 0.71
- CC(=O)NC(C(=O)c1ccccc1)C(=O)c1ccccc1
    0.11 | -0.09
- Cc1cccc(-c2noc(CCC(=O)NC3CCCCC3)n2)c1
    1.26 | 0.3
- O=C(COC(=O)c1ccc(S(=O)(=O)Nc2ccccc2)cc1)NCCN1C(=O)CSC1=O
    0.15 | 0.73
- CCOC(=O)Cc1nnc(Nc2cc(C)ccc2C)c2ccccc12
    2.36 | -2.11
- CN/S(=N/S(=O)(=O)c1ccccc1)c1ccc(C)cc1 (stereo not given)
    0.77 | -0.09
- O=C(CSc1cccc2cccnc12)N/N=C/c1ccc(F)cc1
    0.61 | -1.26
- Cc1ccc(C(=O)Nc2cccc(C(=O)NCc3ccco3)c2)cc1
    0.98 | -1.58
- CC(C)(C)N(Cc1ccccc1)C(=O)c1ccc(Cl)cc1[N+](=O)[O-]
    0.44 | -3.41
- O=C(OCC(=O)N1CCOCC1)c1ccc(Br)cc1
    0.39 | 1.5
- C[C@@H]1C[C@H]2[C@@H]3CCC4=CC(=O)C=C[C@]4(C)[C@@]3(F)[C@@H](O)C[C@]2(C)[C@H]1C(=O)CO
    0.79 | -0.24
- CCCNC(=O)c1ccc(Cl)cc1Cl
    0.34 | 0.01
- CCN(Cc1ccncc1)C(=S)NCc1ccccc1
    0.06 | 1.56
- Cc1ccc(/C=N/n2c(C3CCCCC3)n[nH]c2=S)o1
    1.1 | -0.23
- CCC/C(=N/NC(=O)c1ccc2c(c1)OCO2)c1cccs1
    1.26 | -2.09
- O=C(Nc1ccc(F)cc1F)C1CCCN1S(=O)(=O)c1ccc(-c2ccc(=O)[nH]n2)s1 (stereo not given)
    2.1 | -0.98
- CCOC(=O)N1CCN(C(=O)CCN2C(=O)/C(=C\c3ccccc3OC)SC2=S)CC1
    0.16 | -0.23
- CCCCNC(=O)Nc1nnc(C(C)(C)C)s1
    0.25 | -0.01
- COc1ccccc1NC(=O)CSc1nnc(NC(=O)C2CCC2)s1
    1.43 | -1.96

Two records drawn at random from those above, as already listed:
Below each compound – KCNQ2 pot | KCNQ2 pot baseline
- CC(C)(C)N(Cc1ccccc1)C(=O)c1ccc(Cl)cc1[N+](=O)[O-]
    0.44 | -3.41
- Cc1ccc(Cl)cc1Nc1nc(-c2cccnc2)cs1
    0.28 | 0.71

Following part:
Below each compound – KCNQ2 pot | KCNQ2 pot baseline
- COc1ccccc1-n1ccn(CC(=O)Nc2ccc(C)cc2Cl)c(=O)c1=O
    2.03 | -1.92
- Cc1nnc(SCc2ccc(Cl)cc2)nc1/C=C/N(C)C
    0.18 | -2.15
- CC(=O)C1=C(C)NC(=O)NC1c1cc(Br)ccc1OCC(N)=O (stereo not given)
    0.55 | -0.38
- Cc1cccc(NC(=S)NC2CCN(Cc3ccccc3)CC2)c1C
    1.87 | 2.52
- Cn1c(CNC(=O)c2ccco2)nnc1SCC(=O)N1CCN(c2ccccc2)CC1
    0.47 | 0.85
- O=S(=O)(NCc1ccccn1)c1ccccc1
    0.34 | 0.45
- Cc1cccc(-c2n[nH]c(=S)n2/N=C/c2ccc(C)s2)c1
    1.1 | -1.36
- Cc1cc(C)cc(NC(=O)CCN2CC(C)OC(C)C2)c1 (stereo not given)
    0.24 | 0.25
- CCN(CC(=O)N1CCCC1)S(=O)(=O)c1ccc(F)cc1
    0.14 | -1.73
- CCn1c(/C=C/c2cc(Br)ccc2O)nc2ccccc2c1=O
    0.33 | -0.39
- COc1ccc(N2CCN(C3CC(=O)N(C)C3=O)CC2)cc1 (stereo not given)
    0.02 | -1.49
- CC(NC(=O)Nc1ccc([N+](=O)[O-])cc1)C(c1ccccc1)N1CCOCC1 (stereo not given)
    0.6 | -0.26
- O=C(COc1ccc(F)cc1)Nc1nnc(-c2ccncc2)s1
    0.36 | -1.25
- CCN(CC)CCCNC(=O)c1cc2nc(-c3ccccc3)cc(C(F)(F)F)n2n1
    1.03 | 0.17
- NC(=O)[C@H]1CC2(CC(c3cccc(NC(=O)[C@H]4CCC(=O)N4)c3)=NO2)CN1C(=O)c1ccccc1C(=O)c1ccccc1 (stereo not given in full)
    0.32 | 0.11
- CCc1nnc(NC(=O)C2CCC(CNc3c(N4CCCCC4)c(=O)c3=O)CC2)s1 (stereo not given)
    1.05 | 2.78
- COc1ccc(N2CCN(CC(=O)NC(C)c3ccccc3)CC2)cc1 (stereo not given)
    0.02 | -1.7
- COCc1ccc(C(=O)N2CCCC(C(=O)c3ccc(SC)cc3)C2)o1 (stereo not given)
    0.15 | -0.73
- O=C(Cn1ncc2c([nH]c3ccccc32)c1=O)N1CCCCC1
    1.23 | -1.16
- CCOC(=O)Cc1csc(NC(=O)c2ccc([N+](=O)[O-])cc2[N+](=O)[O-])n1
    0.36 | -0.02
- COc1cccc(CNc2ccc(C)c(Cl)c2)c1
    0.05 | 0.27
- O=C(NCc1ccccn1)c1cccc(NS(=O)(=O)c2ccccc2)c1
    1.18 | 1.03
- CCN(c1ccc(C)cc1)S(=O)(=O)c1nnc(NC(=O)c2ccco2)s1
    1.24 | -1.35
- CC(=O)c1ccc(N2CCN(c3ncccn3)CC2)cc1
    2.04 | -2.22
- COc1cc(Cc2cnc(N)nc2N)cc(OC)c1OC
    0.07 | /
- C=CCSc1nnc(NC(=O)CSc2nc(CCC)cc(=O)[nH]2)s1
    2.11 | 0.29
- Cc1nn(-c2ccccc2Cl)c2sc(C(=O)Nc3nnc(C4CC4)s3)cc12
    0.74 | -1.52
- Cc1cc(C)c(S(=O)(=O)n2c([N+](=O)[O-])cnc2C)cc1C
    0.94 | -0.34
- COC(=O)c1ccc(NC(=O)CCN2CCN(c3ccccc3)CC2)cc1
    0.96 | 0.94
- CC1=C(C(=O)OC2CCCCC2)C(c2ccccc2)NC(=O)N1 (stereo not given)
    3.67 | -0.42
- O=C(Nc1ccccc1)c1cn2ccccc2n1
    1.5 | 1.11
- COCCn1c(=O)c2c(nc3n2CCCN3CCc2ccccc2)n(C)c1=O
    1.3 | 2.04
- O=C(CSc1nc(=O)n(CCN2CCOCC2)c2c1CCCC2)Nc1ccc([N+](=O)[O-])cc1
    1.98 | -0.69
- CNc1nc(Nc2ccc(C)c(Cl)c2)c2cnn(C)c2n1
    0.14 | 0.59
- Cc1ccc(S(=O)(=O)N2CCCNCC2)cc1
    0.39 | -0.24
- CC(=O)Oc1ccc(C(=O)Nc2cccc3c2CCCC3)cc1
    0.2 | 1.7
- C/C(=N\NC(N)=S)c1ccc2c(c1)OCCO2
    2.25 | -0.32
- N/C(=N\OC(=O)CCC(=O)O)c1ncc(C(F)(F)F)cc1Cl
    0.02 | 0.49
- OCC1(CCc2ccccc2)CCN(Cc2cnc(N3CCCC3)s2)CC1
    0.18 | -0.04
- O=S(=O)(c1ccccc1)N1CCN(c2nc3ccccc3s2)CC1
    0.52 | 1.14
- COc1cccc(/C=N/NC(=O)c2ccc(COc3ccc(Cl)cc3Cl)o2)c1
    0.02 | -1.27
- Nc1ccccc1-n1cccc1
    1.08 | -0.62
- Cc1ccc(C(=O)NCc2ccc(Cl)c(Cl)c2)o1
    1.75 | 1.09
- Cc1ccccc1OC(=O)Cn1c(C(F)(F)F)nc2ccccc21
    0.77 | 0
- CC(C)CNC(=O)C1CCN(S(=O)(=O)c2ccc(-n3cnnn3)cc2)CC1
    0.76 | -0.01
- Cc1ccc(S(=O)(=O)NC(CC(=O)NCc2ccco2)c2ccco2)cc1 (stereo not given)
    1.69 | 3.02
- COCCNC(=O)/C(C#N)=C/c1ccc2c(c1)OCO2
    0.3 | -0.06
- CC1(C)CC(NC(=O)Nc2ccc([N+](=O)[O-])cc2)CC(C)(C)N1
    0.24 | 0.34
- Cc1ccc(N2CC(C(=O)O)CC2=O)cc1 (stereo not given)
    0.02 | -0.82
- CSc1nc2c(c(=O)[nH]1)C(c1cccs1)C1=C(CCCC1=O)N2 (stereo not given)
    1.76 | -0.79
- COc1cc(CNC(C)(C)C)cc(Br)c1OCc1cccs1
    0.29 | 0.1
- CCN1CCN(c2cc(C)c3cc(NC(=O)c4cc(OC)cc(OC)c4)ccc3n2)CC1
    0.47 | 0.05
- CCCNC(=O)NC(=O)CN1C(=O)NC(C)(c2ccc3ccccc3c2)C1=O (stereo not given)
    0.27 | -2.52
- CC1CCN(C(=O)CN(C2CCCCC2)S(C)(=O)=O)CC1
    0.42 | 0.81
- C=CCc1c(O)nc(SCC(=O)c2ccccc2)[nH]c1=O
    0.99 | -0.28
- Cc1ccnc(-n2c(C)cc(C=O)c2C)c1
    1.57 | 0.67
- O=C(NCCc1ccc2c(c1)OCCO2)c1cc(F)cc(F)c1
    0.64 | 0.01
- CCOc1cccc(OCCOCCN(C)Cc2ccccc2)c1
    0.17 | 0.69
- CCOC(=O)CN1CC23C=CC(O2)C(C(=O)Nc2ccc(OC)cc2OC)C3C1=O (stereo not given)
    0.05 | -0.1
- CCN1C(=O)c2cccc3c(Cl)ccc1c23
    2.12 | -0.34
- O=C(O)/C=C/c1ccc(S(=O)(=O)N2CCCCCC2)cc1
    0.18 | 0.21
